From PubChem BioAssay
miR-21 FLuc – raises the signal of a miR-21 reporter; HeLa miR-21 FLuc reporter, luciferase, 48 h; Potency, µM (top dose mostly 38.3 µM), inactives show at the highest dose reporter change, positive = more light; 340,000 tested, under 10 active; AID 2288; active = well fitted rising curve with a large enough effect; inconclusive = small, poorly fitted or top-dose-only effect; inactive = no such curve, though single readings can be large or run the other way;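 further: % of control where 0% means no effect; miR-21 action dims this reporter so a rising signal means less miR-21 action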
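HeLa cells stably expressing CMV-driven firefly luciferase with a downstream miR-21 binding sequence, endogenously expressing miR-21, were treated with titrations (up to about 40uM final) for 48 hours at 37 degree Celsius. Luciferase luminescence was read after lysis.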
GLA inh pH 4.5 – inhibitors of human alpha-galactosidase A at pH 4.5 | P06280 | purified enzyme, 4-MU-alpha-Gal fluorescence, pH 4.5 | activity change, negative = inhibition, % at 105 µM | 230,000 tested, under 10 active; inconclusive = small, poorly fitted or top-dose-only inhibition, or a rising curve; inactive = flat fitted curve, though single readings scatter; no compound was filed as active;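 further: 0% = full activity with enzyme and -100% = basal without enzyme; dose as in the result columns while the protocol names 77 µM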
Rango-impB inh – inhibitors of Rango-importin beta complex formation; AID 540263; Q14974; Rango CFP/YFP FRET sensor + importin beta, 45 min; Potency, µM (top dose mostly 92.2 µM), for inactives: top-dose inhibition of complex formation; 0.031% of 340,000 active; active = rising FRET ratio curve, often small or poorly fitted; inconclusive = mostly compound fluorescence or quenching in the first reads; inactive = flat curves in all reads;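 further: potency means the concentration at half of the fitted maximal effect; 0% = DMSO wells and 100% = buffer wells lacking importin beta; nearly all actives have a fitted effect of over 15% in size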
Target sequence (Q14974 whole entry, looked up): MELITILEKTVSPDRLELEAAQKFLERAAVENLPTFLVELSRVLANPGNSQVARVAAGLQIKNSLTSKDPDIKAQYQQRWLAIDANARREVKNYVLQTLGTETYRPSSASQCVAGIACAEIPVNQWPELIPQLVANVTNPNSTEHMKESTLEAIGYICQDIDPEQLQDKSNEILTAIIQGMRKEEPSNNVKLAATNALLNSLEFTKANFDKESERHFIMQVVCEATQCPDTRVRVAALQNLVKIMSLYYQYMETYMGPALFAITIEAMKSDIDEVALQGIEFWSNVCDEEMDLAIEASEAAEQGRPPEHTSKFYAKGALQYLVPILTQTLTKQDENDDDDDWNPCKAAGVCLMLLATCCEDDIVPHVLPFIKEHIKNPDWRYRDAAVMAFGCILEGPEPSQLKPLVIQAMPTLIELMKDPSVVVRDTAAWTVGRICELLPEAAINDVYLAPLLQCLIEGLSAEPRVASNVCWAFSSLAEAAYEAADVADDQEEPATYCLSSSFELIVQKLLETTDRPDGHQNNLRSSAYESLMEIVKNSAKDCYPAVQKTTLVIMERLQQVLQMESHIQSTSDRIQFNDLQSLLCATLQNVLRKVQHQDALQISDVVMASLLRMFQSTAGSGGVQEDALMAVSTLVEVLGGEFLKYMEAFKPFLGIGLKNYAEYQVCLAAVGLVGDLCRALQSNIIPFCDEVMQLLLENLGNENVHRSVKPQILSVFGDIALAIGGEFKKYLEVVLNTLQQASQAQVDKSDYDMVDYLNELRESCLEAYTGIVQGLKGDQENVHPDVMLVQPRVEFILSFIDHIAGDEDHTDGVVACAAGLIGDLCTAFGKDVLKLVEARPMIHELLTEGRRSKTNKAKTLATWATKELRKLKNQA
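FRET biosensor (snurportin 1 IBB flanked by EYFP and cerulean), 50 nM, with compound 5 min, then 0.125 microM importin beta in PBS, 1 mM DTT, 0.02% Tween-20, 0.1% BSA. CFP/YFP ratio read after 45 min at room temperature; pre-read flags interference.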
Rango dissoc inh – inhibition of RanGTP-driven Rango-importin beta dissociation; O95149+P62826; Biochemical FRET Rango-importin beta, RanGTP-induced dissociation; Potency, µM (series often up to 46.1 µM), without a hit: at the top dose activity change, negative = inhibition; 0.071% of 340,000 active; active means falling FRET ratio curve, often poorly fitted, with flat reads before Ran was added; inconclusive means other falling curves, or compound fluorescence or quenching; inactive means flat or rising ratio curve;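 further: potency means the concentration at half of the fitted maximal effect; % of control where 0% means no effect; nearly all actives have a fitted effect of over 45% in size; -100% = wells without RanGTP and RCC1; the record marks most hits as doubtful in a second field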
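Quantitative HTS using a FRET biosensor: 0.1 uM Rango, 0.25 uM importin beta, 0.6 uM Ran, 2 mM GTP, 0.2 uM RCC1 final, PBS with DTT, Tween-20 and BSA. Post-read taken 45 min after Ran addition.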
An asterisk follows results filed as active; ? = inconclusive; . = not tested or not shown; & = joins results of further samples; [ ] = remark or other dose. Some of the compounds tested; the hit share may differ from the screen's.

entry	SMILES	miR-21 FLuc	GLA inh pH 4.5	Rango-impB inh	Rango dissoc inh
1	CS(=O)CSc1nc2c(cc1C#N)CCCC2 (centres undefined)	-8%	-1	1.3%	6%
2	Fc1cccc(-c2nnn3c2nc(Cl)c2ccccc23)c1	-40%	8	?	?
3	COc1cc(/C=N/NC(=O)Nc2ccccc2)ccc1OC(C)=O	-105%	-3	-3.0%	0%
4	COc1ccc(NC(=O)NC2(C(=O)N3CCOCC3)CCCCC2)cc1	-7%	.	-3.2%	-3%
5	Cc1ccc(C(c2sc3ncnn3c2O)N2CCCCC2)cc1 (centres undefined)	-17%	-1	-5.1%	18%
6	Cc1ccc2c(c1)sc1nc(=O)ccn12	-16%	.	0.4%	1%
7	Fc1ccccc1/C=N/n1c(COc2ccccc2)n[nH]c1=S	-7%	.	-0.4%	2%
8	OCC(CO)c1cnnc2ccccc12	.	.	-0.8%	-6%
9	CCN(CC)S(=O)(=O)c1ccc(/C=C/C(=O)Nc2ccc(Br)cc2F)cc1	13%	8	-0.8%	13%
10	O=[N+]([O-])c1ccc(CN2CCN(c3ccc(Cl)cc3)CC2)o1	2%	.	2.2%	5%
11	CCOC(=O)/C=C1/SCC(=O)N1CC(=O)Nc1cccc(F)c1	.	.	-2.4%	-6%
12	Cc1ccc(C(=O)NC(=S)Nc2ccccc2N2CCCC2)cc1[N+](=O)[O-]	-23%	-23	-0.6%	-23%
13	CS(=O)(=O)c1ccc(-c2nn[nH]n2)cc1	-1%	0	-6.9%	29%
14	O=C1CC(C(=O)O)S/C(=N\NC(=O)c2ccc(F)cc2)N1 (centres undefined)	-3%	-7	0.5%	-4%
15	Cc1nccn1CCOc1ccc(Cl)cc1	-2%	.	0.0%	-4%

Further records
entry	SMILES	miR-21 FLuc	GLA inh pH 4.5	Rango-impB inh	Rango dissoc inh
16	Oc1ccccc1C=NNc1nc2ccccc2s1	.	.	-3.0%	15%
17	Cc1ccc(Sc2ncccc2C(N)=O)cc1	.	.	0.9%	-18%
18	NC(=O)c1ccc(NC(=O)CSc2nc3ccccc3c(=O)n2CCCN2CCOCC2)cc1	.	.	1.1%	-4%
19	NC(=O)C1CCN(CC(O)COc2ccc(-c3ccccc3)cc2)CC1 (centres undefined)	-5%	.	3.6%	28%
20	COc1cc(OC)cc(C(=O)NCCn2ccc3ccccc32)c1	-18%	-8	0.6%	1%
21	CCc1noc(C)c1C(=O)Oc1ccc(N(C)S(=O)(=O)c2ccc(C)c(C)c2)cc1	.	.	0.2%	-16%
22	Cc1cc(C(=O)CSc2nnc(-c3cccs3)n2Cc2ccccc2)c(C)n1C	0%	2	8.0%	-23%
23	COc1cc2c(-c3ccc(O)cc3)nc3c(c(C)nn3-c3ccccc3)c2cc1OC	-9%	5	-2.7%	13%
24	Cc1ccc(Nc2nc(N)nc(CSc3nc4ccccc4s3)n2)cc1	-31%&-26%	0	-5.9%	12%
25	COc1ccccc1S(=O)(=O)N1CCN(S(=O)(=O)c2cccs2)CC1	.	.	0.4%	6%
26	O=C(CCc1c[nH]c2ccccc12)OCc1ccc(Br)cc1	-16%	.	0.3%	10%
27	O=C(NC1(O)C(=O)c2ccccc2C1=O)c1ccccc1	6%	3	-0.7%	-2%
28	O=C(CN(CC1CCCO1)C(=O)CCC(=O)Nc1nccs1)NCC1CCCO1 (centres undefined)	-1%	1	0.0%	-8%
29	O=C(OCc1cc(-c2ccccc2)no1)c1ccc2ccccc2n1	-14%	-5	-3.0%	0%
30	CCOc1ccccc1C(=O)Nc1ccccc1C(N)=O	-4%	-11	-3.6%	-1%

Next section
entry	SMILES	miR-21 FLuc	GLA inh pH 4.5	Rango-impB inh	Rango dissoc inh
31	NS(=O)(=O)c1ccc(NC(=O)COC(=O)c2ncc(Cl)c(Cl)c2Cl)cc1	.	.	3.5%	10%
32	Cc1cc(NS(=O)(=O)c2ccc(NC(=O)c3ccc(Br)o3)cc2)nc(C)n1	?	4[21.1 µM]	-4.3%	-7%
33	N#C/C(=C\c1cccnc1)C(=O)Nc1ccccc1	-14%	9	?	-25%
34	Cc1cc(C(=O)NC2CCCc3c2cnn3-c2ccc(C)c(C)c2)n(C)n1 (centres undefined)	23%	.	-1.6%	-8%
35	CCCCc1ccc(/C(C)=N/NC(=O)C2CCCC2)cc1	-3%	.	4.4%	0%
36	NS(=O)(=O)c1ccc(NC(=O)CSc2nnc(NC3CC3)s2)cc1	.	.	-2.0%	-13%
37	CC(=O)c1nnn(-c2nc(N3CCCC3)nc(N(c3ccccc3)c3ccccc3)n2)c1C	-5%	-12	-3.9%	-3%
38	Cc1noc(C)c1S(=O)(=O)N1CCC(C(=O)Nc2ccc(OC(F)(F)F)cc2)CC1	4%	-8	-0.1%	0%
39	CC(=O)Nc1ccccc1-c1nn[nH]n1	1%	1	1.3%	-3%
40	CCOc1ccc(-c2nnc(N(CC)C(=O)C3CCC3)s2)cc1	-43%	-5	2.7%	-12%
41	CC(Sc1nnnn1-c1ccc(Cl)cc1)C(=O)NCC(=O)Nc1ccc(F)c(F)c1F (centres undefined)	19%	0	-0.9%	4%
42	CCN1CCN(c2ncc(C(=O)N3CCN(c4ccccc4OC)CC3)c3ccccc23)CC1	.	.	3.4%	-12%
43	COC(=O)C1=C(C)N(Cc2ccccc2)C(=O)N[C@H]1c1ccc(Br)cc1	14%	-12&-28	0.4%	1%
44	O=C(Nc1cccnc1Cl)c1cc2ccccc2o1	-59%	.	0.0%	10%
45	S=C(NC1CCCCC1)c1ccc2c(c1)OCO2	-36%	1	3.4%	-24%

(cont.)
entry	SMILES	miR-21 FLuc	GLA inh pH 4.5	Rango-impB inh	Rango dissoc inh
46	Cn1c(-c2ccc(=O)[nH]c2)nc2ccccc21	-12%	4	-1.2%	12%
47	COc1cccc(NC(=O)c2csc3c2CCCC3)c1	-44%	-4	-0.1%	-3%
48	CC(C)Oc1ccc(CNC(=O)Cn2c(=O)c3cccn3c3cccnc32)cc1	3%	.	-1.7%	-15%
49	CCOc1ccc(N(CC(=O)NC2CCCC2)C(=O)CCC(=O)Nc2ccccn2)cc1	0%	2	0.3%	-3%
50	COc1ccc(CN2CCNC(=O)C2CC(=O)NCc2cccc(C)n2)c(OC)c1 (centres undefined)	3%	1	-1.1%	-8%
51	COc1ccc(CNC(=O)NC(C)(C)c2cccc(C(C)(C)NC(=O)NCc3ccc(OC)cc3)c2)cc1	-2%	4	-0.5%	9%
52	O=c1cc(-c2cccs2)oc2ccc(Cl)cc12	-41%	-6	0.0%	9%
53	Cc1ccc(CN2CCC(n3nccc3NC(=O)c3ccc4c(c3)OCO4)CC2)o1	-2%	.	-3.5%	1%
54	O=C(CC(NC(=O)C(F)(F)F)c1ccccc1)Nc1nnc(CCc2ccccc2)s1 (centres undefined)	-5%	-9	-4.9%	-1%
55	Cc1noc(C)c1S(=O)(=O)N1CCCC(C(=O)N2CCN(C3CCCCC3)CC2)C1 (centres undefined)	-3%	-2	-1.1%	-1%
56	O=C(Nc1ccc(N2CCCCC2)cc1)c1cccnc1Cl	-47%	10	-2.5%	-5%
57	FC(F)(F)c1cccc(Cc2noc(CN3CCCC(CN4CCCC4)C3)n2)c1 (centres undefined)	-6%	2	0.3%	-15%
58	Cc1cc(F)c(F)cc1C(=O)N1CCCC1	-2%	-3	-0.4%	-6%
59	CC(C)(C)C(=O)N1CCN(c2c(Cl)cccc2[N+](=O)[O-])CC1	0%	-6	4.8%	-6%
60	COc1ccc(CNC(=O)CSc2nc(-c3ccccc3)cc(-c3cccs3)c2C#N)cc1	-2%	8	2.2%	0%

(further entries)
entry	SMILES	miR-21 FLuc	GLA inh pH 4.5	Rango-impB inh	Rango dissoc inh
61	Cc1ccc(NC(=O)COC(=O)Cn2cnc3c2c(=O)n(C)c(=O)n3C)cc1Cl	-1%	-1	0.6%	35%
62	O=C(NCc1ccccc1)c1cc(-c2ccco2)on1	-33%	-1	-2.1%	-14%
63	COc1ccc2sc(N(CCN(C)C)C(=O)c3ccc4ccccc4c3)nc2c1	-16%	.	-1.2%	6%
64	CCCCOc1ccc(/C=N/NC(=O)C2CCCNC2=O)cc1 (centres undefined)	0%	4	0.2%	0%
65	CCOC(=O)c1ccc(NC(=O)C(C)N2C(=O)c3ccccc3C2=O)cc1 (centres undefined)	-4%	-3	3.6%	18%
66	CCOC(=O)CSc1nc2ccccc2n1CC(=O)N(C(C)C)C(C)C	-2%	-6	-2.0%	-2%
67	Cc1cc(OCC(=O)NC2CC(C)(C)NC(C)(C)C2)c2c(C)c(C)c(=O)oc2c1	2%	.	-4.8%	4%
68	CCCCn1c(SCC(=O)N2CCCCC2C)nc2cc(S(N)(=O)=O)ccc21 (centres undefined)	2%	0	-0.5%	5%
69	CSc1ccccc1NC(=O)c1cnc2scc(C)n2c1=O	-52%	-11	4.0%	?
70	CN1CCN(CCOCCOc2c(Cl)cc(Cl)cc2Cl)CC1	.	.	-0.1%	11%
71	O=C(COc1ccccc1C(=O)Nc1ccccc1)NCCc1ccccc1	-4%	-7	-2.0%	7%
72	CC(C)(C)NC(=O)c1cc([N+](=O)[O-])ccc1N1CCCCC1	-4%	3	-2.2%	3%
73	COc1ccc(OC)c(N2C(=O)CC(C(C)c3ccccc3)C2=O)c1 (centres undefined)	-5%	12	-1.3%	-10%
74	CN(Cc1ccco1)c1ncnc2ccc(-c3ccoc3)cc12	.	.	0.1%	-2%
75	COc1ccc(OC)c(S(=O)(=O)N(C)CC(=O)N2CCCCC2)c1	0%	.	3.9%	2%

(listing goes on)
entry	SMILES	miR-21 FLuc	GLA inh pH 4.5	Rango-impB inh	Rango dissoc inh
76	Cc1ccccc1N(CC(=O)NCC1CCCO1)C(=O)C1(C)CC(=O)N=C2C=CC=CN21 (centres undefined)	-6%	8	-2.9%	-11%
77	CCN(CC)C(=O)CSc1ncnc2c1nnn2-c1ccc(OC)cc1	-4%	-1	3.3%	-3%
78	COc1ccc([C@H]2CC(=O)C=C(c3ccc(Cl)c(C(F)(F)F)c3)C2)cc1OC	.	.	0.3%	5%
79	O=c1cc(O)c2c(=O)n(Cc3ccccc3)c3ccccc3c2o1	1%	0	-0.2%	-8%
80	COc1ccccc1CNC(=O)c1ccc(-c2ccccc2Cl)o1	-51%	-7	-3.8%	0%
81	CCOc1ccc(NC(=O)C2C3C=CC4(CN(C(C(=O)OC)C(C)C)C(=O)C24)O3)cc1 (centres undefined)	-10%	-1	0.2%	-11%
82	Cc1ccc(-c2noc(CCC(=O)N3CCCc4ccccc43)n2)cc1	-5%	-3	-4.1%	-10%
83	O=C(NC(=S)NC1CCCCC1)c1ccc(Cl)cc1	-4%	.	1.6%	-9%
84	O=C1CN(S(=O)(=O)c2ccccc2)CC(=O)N1CCc1ccccc1	-8%	-8	-2.6%	-2%
85	CC(Sc1nc(-c2ccccc2)cc(C(F)(F)F)n1)C(=O)Nc1sc2c(c1C#N)CCC2 (centres undefined)	-11%	-5	2.1%	-5%
86	OC(Cc1ccnc2ccccc12)C(Cl)(Cl)Cl (centres undefined)	.	.	1.5%	-3%
87	CCN(CC)S(=O)(=O)c1cccc(-c2nnc(-c3ccc(C)cc3)o2)c1	-3%	-17	1.7%	-4%
88	CC(=NN=C(C)c1ccc(O)cc1)c1ccc(O)cc1	.	.	0.5%	6%

4 entries picked at random from the list so far:
entry	SMILES	miR-21 FLuc	GLA inh pH 4.5	Rango-impB inh	Rango dissoc inh
83	O=C(NC(=S)NC1CCCCC1)c1ccc(Cl)cc1	-4%	.	1.6%	-9%
85	CC(Sc1nc(-c2ccccc2)cc(C(F)(F)F)n1)C(=O)Nc1sc2c(c1C#N)CCC2 (centres undefined)	-11%	-5	2.1%	-5%
73	COc1ccc(OC)c(N2C(=O)CC(C(C)c3ccccc3)C2=O)c1 (centres undefined)	-5%	12	-1.3%	-10%
42	CCN1CCN(c2ncc(C(=O)N3CCN(c4ccccc4OC)CC3)c3ccccc23)CC1	.	.	3.4%	-12%
